Source: PubChem (several laboratories)
Bead autofluor – counter-screen for toxin protease inhibitors: compound fluorescence; compound autofluorescence counterscreen, microsphere flow cytometry; active compounds read high; fluorescence intensity (no concentration beside the values); 3.1% of 360,000 active;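 active = at least 3 SD above the mean of all compounds, about 16000 in these data; inconclusive = too few beads counted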;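 note: 100 nL of 1 mM stock went into each well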
Mtb hypoxia inh – Mtb hypoxia fluorescent reporter inhibition. fluorescence inhibition, % (no concentration beside the values). M. tuberculosis hypoxia-regulated fluorescent reporter, fluorescence. 0.1% of 300,000 active;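 active = 35 to 45% if threefold the growth effect, above 45% if 1.5-fold the growth effect; inactive = the rest, general growth blockers included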;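 note: wells of about 50 µL received 100 nL stock; 0% = vehicle wells and 100% = reference inhibitor wells; whole bacteria with a GFP reporter of the hypoxia response; strong numbers were not always called active; many hits fall short of the cut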
ugtP null kill – growth inhibition of S. aureus ugtP deletion strain; S. aureus RN4220 ugtP deletion, OD600 growth, 16 h; some inactives read as strong as hits; growth inhibition, % (concentration not given with the values); 0.54% of 330,000 active;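 active = z-score under -3 and OD600 up to 0.15 on both plates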;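 note: plate controls were untreated wells for no effect and antibiotic for full effect; wells of about 80 µL received 100 nL stock; the first replicate is given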
PrP UTR inh – inhibition of PrP 5' UTR reporter expression | cell-based PrP 5' UTR mRNA reporter, plate reader | inhibition, % (concentration not given with the values) | 0.35% of 340,000 active;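 active = every replicate at 50% or more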;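 note: 0 = median of the neutral control wells; tested in H4 reporter cells; numbers are from one replicate; inactives centre near -14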
RN4220 kill – S. aureus RN4220 growth inhibition. OD600, 16 h. inhibition, % (concentration not given with the values). 0.33% of 330,000 active;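 active = z-score of -3 or lower and OD600 up to 0.18 on both plates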;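 note: plate controls were untreated cells for no effect and reference antibiotic for full effect; stock transfer was 100 nL into about 80 µL; one replicate is shown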
BJeLR viability – BJeLR cell viability loss | BJeLR (HRASV12) viability, CellTiter-Glo ATP luminescence, 48 h; reference of the scale not given here | inhibition, % (concentration not given with the values) | 0.17% of 300,000 active | AID 1554;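 active = replicate mean above 50%; inconclusive = above 50% but judged a plate artefact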;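 note: 50 nL library stock added to about 25 µL; numbers are from one replicate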
Mtb hypoxia inh growth – further read-out of Mtb hypoxia inh, marked with its call; growth inhibition, %; measured here: M. tuberculosis growth (absorbance);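 0% = vehicle and 100% = reference antibiotic; read after six days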
* marks the source's active call; other numbers are inactive results; ? = inconclusive; . = not tested or not shown; & = joins results of further samples. Not a hit list; any-hit rate near 4%.

The line under a structure holds: Bead autofluor	Mtb hypoxia inh	Mtb hypoxia inh growth	ugtP null kill	PrP UTR inh	RN4220 kill	BJeLR viability
- CCn1c(SCC(=O)N/N=C(\C)c2ccncc2)nnc1-c1ccccc1
  2386	.	.	.	-12	.	-4
- N#C/C(=C\c1coc2ccccc2c1=O)C(N)=S
  4925	-4	-1	14	-20	6.5	2
- CCN(C(=O)Cn1ccc(C(F)(F)F)n1)c1c(N)n(Cc2ccccc2)c(=O)[nH]c1=O
  3869	9	1	3	-6	3.5	.
- CCOc1ccc(S(=O)(=O)n2ccc(C)n2)c2ccccc12
  3078	.	.	-4	-2	20	-3
- Cn1cc([N+](=O)[O-])c(C(=O)N2CCCCCC2)n1
  5354	-1	6	-3	-19	-2.2	4
- O=C(c1ccc(NS(=O)(=O)c2cccc(C(F)(F)F)c2)cc1)N1CCCC1
  5405	7	-4	0	-17	5.9	6
- CCn1c(SCC(=O)Nc2nnc(C)s2)nc2c(c1=O)SC(C)C2 (stereo not drawn)
  4368	2	7	0	-19	2.9	6
- C[C@]12CCC(=O)C=C1CCC1C2CC[C@@]2(C)C1CCC21OCCO1 (stereo partly drawn)
  2984	3	3	8	0	5.5	.
- CC1(C)NC(=O)N(CCCC(=O)Nc2ccc(C(F)(F)F)cc2)C1=O
  3740	4	9	8	-25	6.3	.
- COC(=O)c1ccc(C(=O)OC)c(NC(=O)CN(C)Cc2ccccc2)c1
  2060	9	3	-4	-17	-0.2	-5
- CC(O)CNC1c2ccccc2CC1O (stereo not drawn)
  3499	14	6	2	-11	3.3	.
- Cc1cccc(C)c1NC(=O)CSc1nc(C)c(CC(=O)c2ccc(Br)cc2)c(C)c1C#N
  3217	16	9	-11	-12	-12	-4
- CN1CCN(c2ccc(S(=O)(=O)N3CCCCC3)cc2N)CC1
  3577	6	8	2	-23	0.1	.
- CC(C)(C)n1cccc1/C=C1\C(=O)NC(=O)N(c2ccccc2)C1=O
  2343	.	.	.	-12	.	3
- O=C(CCSc1nnc(-c2ccncc2)o1)Nc1ccc(F)cc1
  6013	4	1	12	-21	5.1	6
- Cc1cc(F)ccc1S(=O)(=O)N1CCCOC1CNC(=O)C(=O)NC1CCCCC1 (stereo not drawn)
  4517	7	3	1	-83	3.7	2
- Cc1ccc(NC(=S)NC(CO)C(O)c2ccc([N+](=O)[O-])cc2)cc1 (stereo not drawn)
  4406	4	18	2	-20	2.4	3
- COc1cccc(-c2csc3nnc(SCC(=O)NCc4cccs4)n23)c1
  10780	9	4	0	-22	5.6	-6
- O=C(NCCCCCCNC(=O)OC1CCS(=O)(=O)C1)OC1CCS(=O)(=O)C1 (stereo not drawn)
  2752	.	.	0	-15	3.5	3
- O=C(O)CCCCCCCCc1cn(CN2C(=O)c3ccccc3C2=O)nn1
  2794	-2	-4	8	-16	20	-5
- CCOc1ccc(C(Nc2ccc(C)cc2)P2(=O)OCC(C)(C)CO2)cc1 (stereo not drawn)
  2530	0	2	-5	-18	2.1	2
- O=C(c1cccs1)N1C(=O)c2cccc3cccc1c23
  .	2	4	-2	1	3.0	4
- CC(=O)NCCc1nc2ccccc2n1Cc1cccc(C)c1
  5035	-13	8	0	-17	8.5	3
- N#CC(/C(=N/S(=O)(=O)c1cccs1)c1ccccc1)c1nc2ccccc2[nH]1 (stereo not drawn)
  10273	.	.	.	-22	.	8
- CCOC(=O)C1CCN(S(=O)(=O)c2ccc3c4c2CC(=O)N4CC(C)S3)CC1 (stereo not drawn)
  4239	0	2	15	-40	4.7	9
- CC(=O)c1c(C)[nH]c(C(=O)OCC(=O)NCCC(C)C)c1C
  2514	-12	10	3	-10	-1.5	9
- Cc1ccc(N2CC(C(=O)N3CCCc4ccccc43)CC2=O)cc1 (stereo not drawn)
  9544	5	5	3	-38	5.2	3
- Cc1cccc(C(=O)Nc2ccc(C(=O)c3ccccc3)cc2)c1
  4812	4	3	-17	.	-2.7	-5
- COc1ccc(Cl)cc1S(=O)(=O)N1CCCC1
  12694	6	3	3	-22	4.1	10
- O=C(c1ccccc1)c1c[nH]c(C(=O)C(Cl)(Cl)Cl)c1
  4485	10	8	-4	-24	0.0	-8

Taken from the entries so far (11 entries):
The line under a structure holds: Bead autofluor	Mtb hypoxia inh	Mtb hypoxia inh growth	ugtP null kill	PrP UTR inh	RN4220 kill	BJeLR viability
- Cc1cccc(C)c1NC(=O)CSc1nc(C)c(CC(=O)c2ccc(Br)cc2)c(C)c1C#N
  3217	16	9	-11	-12	-12	-4
- CN1CCN(c2ccc(S(=O)(=O)N3CCCCC3)cc2N)CC1
  3577	6	8	2	-23	0.1	.
- CC(C)(C)n1cccc1/C=C1\C(=O)NC(=O)N(c2ccccc2)C1=O
  2343	.	.	.	-12	.	3
- O=C(CCSc1nnc(-c2ccncc2)o1)Nc1ccc(F)cc1
  6013	4	1	12	-21	5.1	6
- Cc1cc(F)ccc1S(=O)(=O)N1CCCOC1CNC(=O)C(=O)NC1CCCCC1 (stereo not drawn)
  4517	7	3	1	-83	3.7	2
- Cc1ccc(NC(=S)NC(CO)C(O)c2ccc([N+](=O)[O-])cc2)cc1 (stereo not drawn)
  4406	4	18	2	-20	2.4	3
- COc1cccc(-c2csc3nnc(SCC(=O)NCc4cccs4)n23)c1
  10780	9	4	0	-22	5.6	-6
- O=C(NCCCCCCNC(=O)OC1CCS(=O)(=O)C1)OC1CCS(=O)(=O)C1 (stereo not drawn)
  2752	.	.	0	-15	3.5	3
- O=C(O)CCCCCCCCc1cn(CN2C(=O)c3ccccc3C2=O)nn1
  2794	-2	-4	8	-16	20	-5
- CCOc1ccc(C(Nc2ccc(C)cc2)P2(=O)OCC(C)(C)CO2)cc1 (stereo not drawn)
  2530	0	2	-5	-18	2.1	2
- O=C(c1cccs1)N1C(=O)c2cccc3cccc1c23
  .	2	4	-2	1	3.0	4

New compounds follow
The line under a structure holds: Bead autofluor	Mtb hypoxia inh	Mtb hypoxia inh growth	ugtP null kill	PrP UTR inh	RN4220 kill	BJeLR viability
- Cc1ccc(S(=O)(=O)NN2C(=O)c3ccccc3NC2(C)C)cc1
  2152	6	1	-1	-24	5.5	-8
- Cc1cc(N2C(=O)C(O)=C(C(=O)c3cccs3)C2c2cccc(O)c2)no1 (stereo not drawn)
  3285	-4	8	-2	-21	5.1	-6
- CC(=O)CSc1nnc(NC(=O)CCc2ccccc2)s1
  3565	.	.	8	-8	-0.9	9
- CSc1ccccc1NC(=O)CN(C)C(=O)CCc1c[nH]c2ccccc12
  3594	0	20	3	6	6.0	-9
- O=C(Nc1ccc(S(=O)(=O)NC2=NCCCCC2)cc1)C1COc2ccccc2O1 (stereo not drawn)
  4955	0	4	9	-25	0.1	4
- CCCC1=[N+](CC(=O)c2ccccc2)CCn2cccc21
  2820	6	10	10	-15	3.8	-4
- COc1ccc(N2CC(NS(=O)(=O)c3ccc4ccccc4c3)CC2=O)cc1 (stereo not drawn)
  ?	3	12	3	-6	2.5	2
- O=C(NCC(c1ccco1)N1CCOCC1)c1ccc(F)c(F)c1 (stereo not drawn)
  ?	0	14	6	-19	0.2	-2
- Cc1cc(C)c(S(=O)(=O)Nc2ccc(O)c(Sc3ncn[nH]3)c2)c(C)c1
  2136	11	3	-2	-12	2.9	-17
- CCOC(=O)NC(=O)CSc1nc(C)cc(C(F)(F)F)c1C#N
  3683	10	9	3	-20	5.8	25
- CCn1c(SCC(=O)Nc2nc(C)cs2)nnc1C(C)NC(=O)c1ccccc1 (stereo not drawn)
  2887	.	.	11	-12	-0.3	4
- CC(=NNC(=O)c1ccc(Br)o1)c1ccncc1
  .	7	1	3	.	3.5	.
- Cc1ccc(-n2[nH]c(C)c(C=Nc3ccc(S(=O)(=O)Nc4nccs4)cc3)c2=O)c(C)c1
  .	.	.	49	.	5.8	.
- C/C(N)=C(/C#N)C(=O)COC(=O)C(NS(=O)(=O)c1ccc(Cl)cc1)C(C)O (stereo not drawn)
  2825&4389	10&15	1&14	9&-9	11&-22	4.9&5.1	-3
- Nc1ccc(-c2ccc(C(=O)O)s2)cn1
  2134	8	5	4	-11	2.4	-10
- CN(CC(=O)Nc1ccc(N2CCOCC2)cc1)CC(=O)Nc1cccc(C#N)c1
  2036	5	9	5	-7	0.3	-11
- COc1ccc(C)cc1S(=O)(=O)N1CCCC(C(=O)NC2CC2)C1 (stereo not drawn)
  5600	8	1	-3	-23	0.9	1
- CCOC(=O)c1oc2ccccc2c1N
  3523	16	3	1	-29	4.0	-1
- COc1ccc(C(=O)Sc2ccc(Cl)cc2)cc1OC
  2073	.	.	13	-10	-15	2
- CCOc1cccc(-c2nnc3sc(-c4cc(OC)c(OC)c(OC)c4)nn23)c1
  11659	-16	-1	-8	.	-4.9	-1
- Cc1[nH]n(-c2ccccc2)c(=O)c1C(C[N+](=O)[O-])c1ccc(F)cc1 (stereo not drawn)
  2134	10	12	9	-22	4.6	6
- CCCCCCCC(=O)NC(Nc1ccc(S(N)(=O)=O)cc1)C(Cl)(Cl)Cl (stereo not drawn)
  4235	3	9	0	-5	3.5	-13
- CCOC(=O)CSc1n[nH]c(=S)s1
  4331	4	7	-2	-17	8.5	-16
- CC1(C)Cc2cccc(OCC(=O)O)c2O1
  4574	.	.	1	-6	2.8	3
- COC(=O)c1cc(OC)c(OC)cc1N
  2121	.	.	-2	5	0.5	11
- COc1ccc(CNC(=O)c2cccc(-c3ccc(C)c4ccccc34)n2)cc1
  4040	5	4	7	-20	4.4	8
- Cc1cc(/C=C2\SC(=Nc3ccc(F)cc3)NC2=O)c(C)n1-c1ccc(S(N)(=O)=O)cc1
  5688	.	.	-32	-30	-14	34
- CN1C(=CC(=O)c2cccc(S(=O)(=O)N3CCCCC3)c2)C(C)(C)c2ccccc21
  .	3	3	-15	.	0.1	.
- COc1ccc(C2C(C(C)=O)=C(O)C(=O)N2CCc2c[nH]c3ccccc23)cc1OC (stereo not drawn)
  4989	6	11	0	-4	0.3	9
- Cc1ccnc(SC2CC(=O)N(c3ccc([N+](=O)[O-])cc3)C2=O)n1 (stereo not drawn)
  3997	2	2	9	-14	11	-6
- COc1ccc(Cl)cc1S(=O)(=O)N1CCC(C(=O)NCCC2=CCCCC2)CC1
  5543	5	3	7	-13	2.9	-13
- O=C(COc1ccc(Br)cc1Br)NC(=S)Nc1cccc(CO)c1
  2576	-2	11	1	-42	-5.4	-8
- CCn1cc(/C=C(\NC(=O)c2ccccc2F)C(=O)NCCCN2CCOCC2)c2ccccc21
  5446	9	4	6	-16	4.0	-2
- CC(=O)NC(N1CCCCC1)C(F)(F)C(F)(F)C(F)(F)C(F)F (stereo not drawn)
  10280	4	-2	-3	-18	3.8	2
- Nc1ccc(C2=Nc3cccc4cccc(c34)N2)cc1
  2061	-3	-3	2	-23	12	0
